High-throughput results as filed in PubChem.
Arbovirus anti = antivirals against arbovirus infection, primary screen, cell-based, full library, 10K replicate subset | arbovirus infection cell-based antiviral screen | inhibition, % at 10 µM | 200,000 compounds, 0.37% hits;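 active = inhibition from about 30%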;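 also: bluetongue infection of BSR cells; cell survival read as ATP light after 72 h; 0% = infected wells without compound and 100% = uninfected wells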
Mtb H37Rv = M. tuberculosis H37Rv growth inhibitors, H37Rv strain (AID 1626); M. tuberculosis H37Rv growth inhibition; higher % means a stronger effect; one-dose inhibition, % at 10 µM; IC50 in µM for titrated hits; 220,000 compounds, 0.95% hits;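 active = confirmed in a dose series; inconclusive = inhibition above 80% but not taken into the dose series; inactive = below 80% or under 30% at every dose of the series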;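 also: bacteria incubated seven days before Alamar blue readout; 0% = bacteria only wells and 100% = bacteria with antibiotic wells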
RecA splice inh = Mtb RecA intein splicing inhibitors, primary screen, biochemical, fluorescence, HTS; Protein RecA (Mycobacterium tuberculosis (strain ATCC 25618 / H37Rv)), P9WHJ3; 290,000 compounds, 0.75% hits; cell-free RecA intein splicing; AID 2221, 2009; inhibition, %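 (about 9 µM by stock and volumes)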; in the data active = inhibition above about 30%; inconclusive = no clear call, values can overlap the other calls;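 also: 0% = vehicle wells and 100% = reference inhibitor control wells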
Target sequence (P9WHJ3 whole entry, looked up, canonical isoform): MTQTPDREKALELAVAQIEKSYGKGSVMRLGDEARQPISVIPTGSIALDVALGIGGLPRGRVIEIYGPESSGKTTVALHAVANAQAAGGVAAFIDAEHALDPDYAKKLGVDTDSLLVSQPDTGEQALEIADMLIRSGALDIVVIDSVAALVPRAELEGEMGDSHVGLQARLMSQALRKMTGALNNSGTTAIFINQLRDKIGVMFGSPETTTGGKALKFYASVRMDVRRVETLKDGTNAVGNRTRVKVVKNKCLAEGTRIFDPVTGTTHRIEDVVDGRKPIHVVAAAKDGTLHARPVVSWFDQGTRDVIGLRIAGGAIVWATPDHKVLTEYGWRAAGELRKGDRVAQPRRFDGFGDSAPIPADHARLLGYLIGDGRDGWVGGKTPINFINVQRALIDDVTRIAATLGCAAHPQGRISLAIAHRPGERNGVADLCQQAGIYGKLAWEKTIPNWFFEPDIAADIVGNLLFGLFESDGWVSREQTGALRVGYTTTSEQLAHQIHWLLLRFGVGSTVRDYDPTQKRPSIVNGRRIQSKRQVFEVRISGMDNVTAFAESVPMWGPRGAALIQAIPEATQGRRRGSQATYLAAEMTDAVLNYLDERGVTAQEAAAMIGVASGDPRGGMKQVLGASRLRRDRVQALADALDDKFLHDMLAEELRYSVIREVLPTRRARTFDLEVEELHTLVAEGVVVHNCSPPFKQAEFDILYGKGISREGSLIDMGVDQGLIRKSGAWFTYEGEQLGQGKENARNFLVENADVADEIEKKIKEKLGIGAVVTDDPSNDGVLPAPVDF
YopH PTP inh = YopH tyrosine phosphatase inhibitors, primary screen, biochemical, fluorescence Ex485/Em525. AID 898, 2007. YopH tyrosine phosphatase [Yersinia enterocolitica]. inhibition, %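 (about 10 µM by stock and volumes)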. 140,000 compounds, 0.16% hits;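 active = inhibition of 50% or more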;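 also: controls were vehicle for no effect and minimum signal wells for full effect; inactives centre near -20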
Mtb betalactam = beta-lactam sensitization of Mtb H37Rv, H37Rv | M. tuberculosis H37Rv growth with meropenem, percent inhibition; hits of this screen are not shown here | inhibition, % at 25 µM | 330,000 compounds, 0.27% hits | AID 434955, 2010;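 active = about 74% or more and at least 40 points above the plate without the antibiotic, then above 30% in a dose series; inconclusive = first-round hits that could not be retested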;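 also: growth measured after seven days incubation then overnight dye step; 0% = bacteria only wells and 100% = bacteria with antibiotic; twin plates without the antibiotic show which effects depend on it; some results filed as inactive read as strong as hits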
Arbovirus anti repeat = recorded beside Arbovirus anti, whose call it bears; inhibition, %; measured here: 10K subset replicate screen; many hits read low in the repeat;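 first of two repeat runs on a subset; 0% = infected and 100% = uninfected wells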
* hit, by the source's call; ? = inconclusive; . = not tested or not shown. Some of the compounds tested; count on the stated rates, not on these rows.

SMILES	Arbovirus anti	Mtb H37Rv	RecA splice inh	YopH PTP inh	Mtb betalactam	others
c1ccc(-c2nn3c(Cn4cnc5ccccc54)nnc3s2)cc1	2	-1%	2.6	-23	6
Nc1ncnc(Oc2cccc(C(F)(F)F)c2)c1[N+](=O)[O-]	10	-3%	7.0	.	-4
CC(C)OC(=O)C1C2C=CC3(CN(C(C)c4ccc(Br)cc4)C(=O)C13)O2 (centres undefined)	5	7%	-1.1	.	4	Arbovirus anti repeat=1
CCCCOC(=O)CCc1c(C)[nH]c(=O)c(C#N)c1C	1	-3%	-1.5	-50	-5
CC(C)c1cccc(O)c(=O)c1	7	-3%	0.4	.	3	Arbovirus anti repeat=4
N#Cc1cccc(NC(=O)CNC(=O)Cc2ccccc2)c1	.	.	-0.1	.	-6
CN(Cc1ccccc1)c1ncc(C=O)s1	0	3%	-0.7	.	6
CCCCCCn1c(CN2CCCCC2C)nc2c1c(=O)n(C)c(=O)n2C (centres undefined)	-17	10%	4.5	6	9
Cc1ccc(S(=O)(=O)NCC(=O)N2CCOCCOCCOCCOCC2)cc1	.	.	-1.2	.	-3
Cc1c(C(=O)O)[nH]c2ccc([N+](=O)[O-])cc12	7	-4%	.	.	.
CCOc1ccc(S(=O)(=O)Nc2cccc(Cl)c2)cc1	.	5%	3.0	2	9
Cc1cc(NC(=O)CCC(=O)N(Cc2cccs2)C(C(=O)NC2CCCC2)c2cccnc2)no1 (centres undefined)	4	-3%	0.8	-11	4
O=C(NCCCO)c1cc2c([nH]c3ccccc32)c(-c2ccccc2)n1	.	.	0.2	.	7
Cc1ccccc1Cn1c(=O)[nH]c2ccccc21	5	10%	3.5	.	-8
Cc1c(C)n(-c2ccccc2)c2ncnc(NCCN(C)C)c12	.	.	-4.3	.	-8
Cn1c(N)c(S(=O)(=O)NCc2ccccc2Cl)c(=O)n(C)c1=O	0	3%	0.3	.	-3
CC1(C)N=C(c2ccccn2)C(C)(C)N1O	7	-2%	-3.2	-1	-3
CCN1CCN(CCCNC(=O)c2cc3cc4ccc(OC)cc4nc3o2)CC1	23	.	-2.9	-8	1
O=C(Cn1c(=O)[nH]c2ccccc2c1=O)Nc1ccc2c(c1)OCCO2	.	.	1.2	.	3
CC(=O)C1=C(C)NC(SCC(=O)c2ccc(Cl)cc2)=C(C#N)C1CC(C)C (centres undefined)	-14	-1%	-1.6	-25	?
Cc1nc(-c2ccc(Cl)cc2)sc1C1(C)CC(c2ccccc2)=NO1 (centres undefined)	.	-4%	3.5	.	-8
O=C(N/N=C/c1c[nH]c2ccccc12)c1cc(Cl)ccc1O	.	.	-6.1	.	2
Cc1onc(C(=O)N2CCN(C(c3ccccc3)c3ccccc3)CC2)c1[N+](=O)[O-]	1	.	0.8	-23	-6
O=C(CCc1nc2ccccc2c(=O)[nH]1)NNC(=O)c1ccc(Cl)cc1	.	.	-2.8	.	-7
O=C(Oc1ccccc1C(=O)N1CCOCC1)c1cccc(Br)c1	0	5%	4.3	-30	11

The list goes on; the last 4 above are carried over.
SMILES	Arbovirus anti	Mtb H37Rv	RecA splice inh	YopH PTP inh	Mtb betalactam	others
O=C(N/N=C/c1c[nH]c2ccccc12)c1cc(Cl)ccc1O	.	.	-6.1	.	2
Cc1onc(C(=O)N2CCN(C(c3ccccc3)c3ccccc3)CC2)c1[N+](=O)[O-]	1	.	0.8	-23	-6
O=C(CCc1nc2ccccc2c(=O)[nH]1)NNC(=O)c1ccc(Cl)cc1	.	.	-2.8	.	-7
O=C(Oc1ccccc1C(=O)N1CCOCC1)c1cccc(Br)c1	0	5%	4.3	-30	11
O=C(O)c1cc(=O)[nH]c2c(Cl)cccc12	-2	-2%	3.0	.	-5
CN(C)c1ccc(-c2noc(-c3ccccc3O)n2)cc1	-8	-8%	4.1	-37	5
CCCC/C(O)=C1\C(=O)CCCC1=NCCc1c(C)[nH]c2ccc(OC)cc12	.	0%	-9.4	.	-5
COc1ccc(Cl)cc1NC(=O)c1cc(C)no1	.	.	3.4	.	-5
CCOC(=O)C1=NNC2C(=O)N(Cc3ccccc3)C(=O)C12 (centres undefined)	.	6%	0.5	.	-9
O=C(NCC1CCCCC1)c1cc([N+](=O)[O-])ccc1N1CCOCC1	2	6%	-1.2	.	-4
CCOC(=O)C1CCCN(c2c(NCCC(C)C)c(=O)c2=O)C1 (centres undefined)	.	-6%	-2.1	.	-5
COCCCNC(=O)c1c(NC(=O)C2COc3ccccc3O2)sc2c1CCCC2 (centres undefined)	2	-1%	0.5	12	-1
Cc1ccc(S(=O)(=O)NCc2csc(C)n2)c(C)c1	12	-22%	-2.1	0	0
CCOC(=O)CNC(=O)COc1coc(CN2CCN(Cc3ccccc3)CC2)cc1=O	.	.	-1.7	.	3
CC(Sc1n[nH]c(=O)[nH]c1=O)C(=O)OCc1ccccc1 (centres undefined)	-2	6%	-2.2	-41	-2	Arbovirus anti repeat=-2
COc1ccc(-c2nc(N)ncc2-c2ccccc2OC)c(O)c1	.	.	0.1	.	2
C[N+](C)(C)CCCN1C(=O)CCCC1=O	-2	0%	1.4	-13	-8
CC(C)(C)NC(=O)CN(CCN1CCOCC1)C(=O)CNS(=O)(=O)c1ccc(Cl)cc1	.	.	-0.1	.	3
Cc1ccc([N+](=O)[O-])cc1Nc1nc(N2CCOCC2)nc(N2CCOCC2)n1	6	-6%	6.1	.	4
Cc1ccc(C)c(S(=O)(=O)NCC(c2ccco2)N2CCc3ccccc3C2)c1 (centres undefined)	.	.	13	.	-10
CCC(Cc1ccccc1)NC(=O)Cn1cccc1C(=O)c1ccccc1 (centres undefined)	.	.	1.1	.	-1
COc1ccc(NC(=O)C2CCC(CNS(=O)(=O)c3cccs3)CC2)cc1OC (centres undefined)	-3	-4%	1.1	.	3
Cc1ccc(N=Nc2ccc(O)c(/C=N\NC(=O)c3ccc(N)cc3)c2)cc1C	-22	-7%	-0.1	-14	9
COc1ccc(-n2nnnc2-c2cccc(OC)c2)cc1	-7	13%	2.7	-10	-9
CCCn1c(O)c(N=NC(=O)c2ccco2)c2ccccc21	3	12%	3.4	16	94
NS(=O)(=O)c1ccc(CCNC(=O)c2ccco2)cc1	16	1%	2.3	.	-6
CN(CC(=O)Nc1ccc(S(=O)(=O)N(C)C)cc1)Cc1ccc(C(F)(F)F)cc1	10	1%	-0.8	.	-5
O[C@@H]1CN(Cc2ccccc2Cl)CC[C@H]1N1CCOCC1	.	.	2.2	.	-5
O=C(CSCc1ccccc1)N1CCN(C(=O)c2ccco2)CC1	-1	-4%	-7.5	-9	1

Of the compounds above, 3 have a thiophene ring, fused or not.
SMILES	Arbovirus anti	Mtb H37Rv	RecA splice inh	YopH PTP inh	Mtb betalactam	others
Cc1cc(NC(=O)CCC(=O)N(Cc2cccs2)C(C(=O)NC2CCCC2)c2cccnc2)no1 (centres undefined)	4	-3%	0.8	-11	4
COCCCNC(=O)c1c(NC(=O)C2COc3ccccc3O2)sc2c1CCCC2 (centres undefined)	2	-1%	0.5	12	-1
COc1ccc(NC(=O)C2CCC(CNS(=O)(=O)c3cccs3)CC2)cc1OC (centres undefined)	-3	-4%	1.1	.	3

Further records follow.
SMILES	Arbovirus anti	Mtb H37Rv	RecA splice inh	YopH PTP inh	Mtb betalactam	others
COc1ccc(C)cc1NC(=O)CCNS(=O)(=O)c1ccc2c(c1)CCC(=O)N2	.	.	-3.0	.	3
COc1ccc2[nH]c(C(=O)Nc3ccccc3Cl)cc2c1	.	-8%	5.3	.	-12
Cc1nnc(SC(C)C(=O)Nc2c(C)n(C)n(-c3ccccc3)c2=O)n1N (centres undefined)	4	-1%	2.1	.	-8
O=[n+]1c2c(n([O-])c3c1CCCC3)CCCC2	-1	-11%	0.3	-6	?
COC(=O)c1ccc(Oc2nc(N(C)C)nc(N3CCOCC3)n2)cc1	-3	-10%	3.5	17	-4
Cc1ccc(N(C(=O)c2sc(C)nc2C)C(C(=O)NCc2ccco2)c2ccccc2)cc1 (centres undefined)	-4	-7%	0.2	-32	-6
O=C(CSc1ncnc2c1nnn2Cc1ccc(F)cc1)NCC1CCCO1 (centres undefined)	.	.	39*	.	7
CS/C(=N/S(=O)(=O)c1ccc(C)cc1)c1ccccc1	8	-8%	-0.4	-24	1
c1ccc(Cn2c[n+](Cc3ccccc3)c3ccccc32)cc1	.	.	-3.4	.	-4
COc1ccc(N2CC(C(=O)N[C@@H](C)C(=O)NCCc3ccccc3)CC2=O)cc1 (some centres undefined)	.	.	0.6	.	4
CCOc1ccc(N)cc1OC	-10	4%	9.2	.	-13
CSc1cccc(NS(=O)(=O)c2ccc3c(c2)oc(=O)n3C)c1	14	-9%	-0.4	-47	1	Arbovirus anti repeat=8
CC1(C)CC(=O)C(C2C3=C(CC(C)(C)CC3=O)Oc3ccc4ccccc4c32)C(=O)C1 (centres undefined)	9	2%	-0.2	.	79
Cc1ccc2cc(C)c(N3CCC(C)CC3)nc2c1	-1	-1%	0.5	.	-1
Cc1cc(C)cc(NCC(=O)Nc2c(C)cccc2C)c1	9	1%	-0.3	28	-18
CCC(CC)NC(=O)/C=C/c1cccc([N+](=O)[O-])c1	4	-4%	-0.3	-26	-3
CC(C)n1nnnc1SCC(=O)NCc1ccc2c(c1)OCO2	-9	6%	-2.0	-8	-4
COc1ccc(S(=O)(=O)n2cnc(C)c2)cc1	4	-5%	0.7	.	-3
CCOC(=O)C(=O)/C(=C\N(C)C)c1onc(-c2ccccc2Cl)c1C(=O)OC	0	-6%	-2.6	-33	1
CCN(CC)c1ccc(/C=C(\C#N)C(=O)NCc2ccco2)cc1	4	2%	.	-9	1

Looked up one by one from the list above (six):
SMILES	Arbovirus anti	Mtb H37Rv	RecA splice inh	YopH PTP inh	Mtb betalactam	others
Cc1cc(C)cc(NCC(=O)Nc2c(C)cccc2C)c1	9	1%	-0.3	28	-18
CC(C)n1nnnc1SCC(=O)NCc1ccc2c(c1)OCO2	-9	6%	-2.0	-8	-4
CCOc1ccc(N)cc1OC	-10	4%	9.2	.	-13
O=[n+]1c2c(n([O-])c3c1CCCC3)CCCC2	-1	-11%	0.3	-6	?
Cc1ccc(N(C(=O)c2sc(C)nc2C)C(C(=O)NCc2ccco2)c2ccccc2)cc1 (centres undefined)	-4	-7%	0.2	-32	-6
COc1ccc(S(=O)(=O)n2cnc(C)c2)cc1	4	-5%	0.7	.	-3
